# Screens as filed in PubChem BioAssay.
# HIV Env fusion = inhibitors of HIV-1 Env-driven cell-cell fusion, primary screen, HeLa-JRFL effector, CEM21 target cells, luciferase | 360,000 tested, 1.1% active | inhibition, % at 12.3 µM | AID 651610, 2012;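 active = mean replicate inhibition score of at least 50 and every replicate individually at or above 50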;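 also: 0% = plate neutral controls and 100% = maraviroc near 300 nM; one replicate is shown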
# Yeast UUG start = modulators of yeast start codon fidelity, primary screen, whole organism, S. cerevisiae, single point, plate reader. S. cerevisiae UUG-firefly luciferase reporter, luminescence/redox ratio. activity score, % at 18.7 µM. 350,000 tested, 0.13% active;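 active = replicate mean at a twofold rise or more, about +100% in these data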;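 also: firefly luciferase made from a UUG start codon reports start codon fidelity; reporter light over untreated wells divided by growth signal over untreated wells; some hits fall short of that in this replicate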
# Starred values were filed as active, the others as inactive; & = joins results of further samples; [ ] = remark or other dose.
compound | HIV Env fusion | Yeast UUG start
CC(C)CC#Cc1cnc2c(c1)C(=O)N([C@H](C)CO)C[C@H](C)[C@H](CN(C)S(=O)(=O)c1cn(C)cn1)O2 | 18[16.7 µM] | 6
COc1cccc(S(=O)(=O)N[C@@H]2C=C[C@@H](CC(=O)NCc3ccc(Cl)cc3)O[C@H]2CO)c1 | -15[16.7 µM] | -6
C[C@@H]1CN([C@H](C)CO)C(=O)c2cc(NS(=O)(=O)c3cn(C)cn3)ccc2O[C@@H]1CN(C)S(=O)(=O)c1ccc(Cl)cc1 | 4[16.7 µM] | -3
Cc1noc(C)c1S(=O)(=O)Nc1ccc2c(c1)C(=O)N([C@H](C)CO)C[C@@H](C)[C@@H](CN(C)S(=O)(=O)c1ccccc1)OCCCC[C@@H](C)O2 | 20[16.7 µM] | -2
C[C@H](CO)N1C[C@H](C)[C@@H](CN(C)C(=O)Nc2ccc3c(c2)OCO3)Oc2ncc(-c3ccccc3)cc2C1=O | 9[16.7 µM] | 5
C[C@H]1CN([C@@H](C)CO)S(=O)(=O)c2ccc(C#Cc3cccc(F)c3)cc2O[C@H]1CN(C)C(=O)NC1CCCCC1 | 15[16.7 µM] | -7
C[C@H]1CCCCO[C@@H](CN(C)S(=O)(=O)c2ccc(F)cc2)[C@@H](C)CN([C@@H](C)CO)C(=O)c2cc(NC(=O)CCC(F)(F)F)ccc2O1 | -4[16.7 µM] | 2
C[C@@H]1CCCCO[C@@H](CN(C)S(=O)(=O)c2cccs2)[C@@H](C)CN([C@@H](C)CO)C(=O)c2cc(NC(=O)NC3CCCCC3)ccc2O1 | 21[16.7 µM] | -1
COc1ccccc1C#Cc1cnc2c(c1)C(=O)N([C@H](C)CO)C[C@H](C)[C@H](CN(C)C)O2 | 2[16.7 µM] | -5
C[C@@H]1CN([C@@H](C)CO)C(=O)c2cc(NS(=O)(=O)c3ccc(Cl)cc3)ccc2O[C@@H](C)CCCCO[C@H]1CN(C)S(=O)(=O)c1cccs1 | -18[16.7 µM] | -4
C[C@H](CO)N1C[C@H](C)[C@@H](CN(C)C(=O)Nc2cccc3ccccc23)Oc2ccc(NC(=O)Nc3ccc(F)cc3)cc2CC1=O | 12[16.7 µM] | 2
C[C@H]1CN([C@@H](C)CO)S(=O)(=O)c2ccc(C3=CCCC3)cc2O[C@@H]1CN(C)C(=O)c1ccccc1 | 8[16.7 µM] | 11
CCCNC(=O)N(C)C[C@H]1Oc2cc(C#C[C@@H](C)O)ccc2S(=O)(=O)N([C@@H](C)CO)C[C@@H]1C | -11[16.7 µM] | -2
C[C@H]1CN([C@@H](C)CO)C(=O)c2cc(-c3ccccc3)cnc2O[C@H]1CN(C)Cc1ccccn1 | -2[16.7 µM] | -27
C[C@H]1CN([C@@H](C)CO)C(=O)Cc2cc(NC(=O)Nc3ccccc3)ccc2O[C@@H]1CN(C)Cc1ccccc1 | -24[16.7 µM] | 3
C[C@@H]1CN([C@H](C)CO)C(=O)Cc2cc(NC(=O)Cc3ccccc3)ccc2O[C@H]1CN(C)Cc1ccc(Cl)c(Cl)c1 | 18[16.7 µM] | 4
O=C(NCC[C@H]1CC[C@@H](NC(=O)C2CCOCC2)[C@H](CO)O1)c1ccc(F)cc1 | 8[16.7 µM] | -1
CC(C)C[C@@H]1NC(=O)[C@H]2C[C@@H](C(=O)NCCCCCNC(=O)CS)[C@@H](c3cccc(OCCO)c3)N2C1=O | 3[16.7 µM] | -14
C[C@H](CO)N1C[C@H](C)[C@H](CN(C)Cc2ccc(Cl)c(Cl)c2)Oc2ccc(NC(=O)NC3CCCCC3)cc2CC1=O | -14[16.7 µM] | -2
O=C(C[C@H]1C[C@@H]2c3cc(NS(=O)(=O)c4ccc(F)cc4)ccc3O[C@@H]2[C@H](CO)O1)NCc1ccccn1 | 21[16.7 µM] | -35
CCCC#Cc1ccc2c(c1)O[C@H](CN(C)C(=O)c1ccccc1F)[C@H](C)CN([C@H](C)CO)S2(=O)=O | 10[16.7 µM] | -10
Cc1noc(C)c1NC(=O)Nc1ccc2c(c1)CC(=O)N([C@@H](C)CO)C[C@@H](C)[C@H](CN(C)C(=O)Nc1ccc(C(F)(F)F)cc1)O2 | -7[16.7 µM] | 4
COc1cccc(C#Cc2cnc3c(c2)C(=O)N([C@@H](C)CO)C[C@@H](C)[C@@H](CN(C)C(=O)C2CCOCC2)O3)c1 | 2[16.7 µM] | 4
CNC[C@@H]1Oc2ncc(-c3ccc(OC)cc3)cc2C(=O)N([C@H](C)CO)C[C@@H]1C | -16&-9[16.7 µM] | 1&1
COc1ccc(S(=O)(=O)Nc2ccc3c(c2)CC(=O)N([C@@H](C)CO)C[C@@H](C)[C@H](CN(C)CC2CCCCC2)O3)cc1 | 15[16.7 µM] | 6
C[C@@H]1CN([C@@H](C)CO)C(=O)c2cc(NS(=O)(=O)c3ccc(F)cc3)ccc2O[C@@H](C)CCCCO[C@@H]1CN(C)S(=O)(=O)c1ccccc1 | 0[16.7 µM] | -6
Cc1ccc(S(=O)(=O)Nc2ccc3c(c2)C(=O)N([C@H](C)CO)C[C@@H](C)[C@@H](CN(C)C(=O)c2ccccc2)OCCCC[C@@H](C)O3)cc1 | 18[16.7 µM] | 42
C[C@H]1CN([C@@H](C)CO)C(=O)Cc2cc(NC(=O)NC3CCCCC3)ccc2O[C@@H]1CN(C)C(=O)Nc1ccc2c(c1)OCO2 | -10[16.7 µM] | 4
C[C@H]1CN([C@@H](C)CO)C(=O)Cc2cc(NC(=O)Nc3ccccc3)ccc2O[C@@H]1CN(C)C(=O)Nc1ccc(F)cc1 | -7[16.7 µM] | 9
Cc1noc(C)c1S(=O)(=O)N(C)C[C@@H]1Oc2c(cccc2N(C)C)C(=O)N([C@H](C)CO)C[C@@H]1C | 3[16.7 µM] | 33

# The list goes on, starting with the last two of the part before.
compound | HIV Env fusion | Yeast UUG start
C[C@H]1CN([C@@H](C)CO)C(=O)Cc2cc(NC(=O)Nc3ccccc3)ccc2O[C@@H]1CN(C)C(=O)Nc1ccc(F)cc1 | -7[16.7 µM] | 9
Cc1noc(C)c1S(=O)(=O)N(C)C[C@@H]1Oc2c(cccc2N(C)C)C(=O)N([C@H](C)CO)C[C@@H]1C | 3[16.7 µM] | 33
O=C(C[C@H]1C=C[C@@H](NC(=O)C2CCC2)[C@@H](CO)O1)NCCCN1CCOCC1 | 10[16.7 µM] | -16
C[C@H]1CN([C@@H](C)CO)C(=O)c2cc(-c3ccc(C#N)cc3)cnc2O[C@@H]1CN(C)Cc1ccncc1 | -127[16.7 µM] | -8
CC(=NNC(=O)c1ccncc1)c1ccc(O)cc1O | 41 | -14
C[C@@H]1CCCCO[C@H](CN(C)S(=O)(=O)c2cn(C)cn2)[C@H](C)CN([C@@H](C)CO)C(=O)c2cc(NC(=O)CCCCCC(=O)Nc3ccccc3N)ccc2O1 | 1[16.7 µM] | -6
Cc1ccccc1S(=O)(=O)N[C@H]1CC[C@H](CCNS(=O)(=O)c2cccc(F)c2)O[C@@H]1CO | 38[16.7 µM] | 17
C[C@@H](NC(=O)C[C@@H]1C=C[C@H](NC(=O)CN2CCOCC2)[C@@H](CO)O1)c1ccccc1 | 28[16.7 µM] | 0
Cc1ccc(S(=O)(=O)N[C@@H]2CC[C@@H](CC(=O)NCc3ccc(Cl)c(Cl)c3)O[C@@H]2CO)cc1 | 13[16.7 µM] | -4
Cc1ccc(S(=O)(=O)N(C)C[C@@H]2OCCCC[C@H](C)Oc3ccc(NC(=O)NC4CCCCC4)cc3C(=O)N([C@@H](C)CO)C[C@H]2C)cc1 | -4[16.7 µM] | -10
Cc1ccc(S(=O)(=O)N(C)C[C@H]2Oc3c(NC(=O)NC4CCCCC4)cccc3C(=O)N([C@@H](C)CO)C[C@@H]2C)cc1 | 3[16.7 µM] | 9
C[C@H](CO)N1C[C@H](C)[C@H](CN(C)Cc2ccc(Oc3ccccc3)cc2)Oc2ccc(NC(=O)Nc3ccc(F)cc3)cc2C1=O | 13[16.7 µM] | 0
CN(C)C(=O)C[C@@H]1CC[C@@H](NS(=O)(=O)c2ccccc2)[C@@H](CO)O1 | 5[16.7 µM] | -16
CCCNC(=O)N[C@@H]1CC[C@H](CC(=O)NCCc2ccccc2)O[C@H]1CO | -2[16.7 µM] | -4
CNC[C@H]1OCCCC[C@@H](C)Oc2ccc(NC(=O)Nc3ccc4c(c3)OCO4)cc2C(=O)N([C@H](C)CO)C[C@@H]1C | 0[16.7 µM] | -10
C[C@H]1CN([C@@H](C)CO)S(=O)(=O)c2ccc(-c3ccc(F)cc3)cc2O[C@H]1CN(C)S(C)(=O)=O | 8[16.7 µM] | 10
COCCNC(=O)C[C@H]1CC[C@H]2[C@H](COc3ccc(NC(=O)COC)cc3C(=O)N2C)O1 | -11[16.7 µM] | 9
O=C(C[C@@H]1C[C@H]2c3cc(NS(=O)(=O)c4ccc(F)cc4)ccc3O[C@H]2[C@@H](CO)O1)NCc1ccc(-c2ccccc2)cc1 | 25[16.7 µM] | -16
COCC(=O)N[C@@H]1C=C[C@@H](CC(=O)NCc2ccccc2OC)O[C@H]1CO | -20[16.7 µM] | -18
Cc1ccc(S(=O)(=O)N(C)C[C@H]2OCCCC[C@@H](C)Oc3ccc(NC(=O)NC4CCCCC4)cc3C(=O)N([C@@H](C)CO)C[C@@H]2C)cc1 | -28[16.7 µM] | 0
Cc1noc(C)c1S(=O)(=O)N(C)C[C@H]1OCCCC[C@H](C)Oc2ccc(NC(=O)Nc3ccccc3)cc2C(=O)N([C@H](C)CO)C[C@H]1C | -27[16.7 µM] | -16
C[C@@H]1CN([C@H](C)CO)C(=O)c2cc(NC(=O)CCCN(C)C)ccc2O[C@H]1CN(C)Cc1ccc(Cl)c(Cl)c1 | -18[16.7 µM] | 15
CCC(=O)Nc1ccc2c(c1)C(=O)N(C)[C@@H]1CC[C@@H](CC(=O)NCCc3ccncc3)O[C@@H]1CO2 | -20[16.7 µM] | -10
C[C@H]1CN([C@@H](C)CO)C(=O)c2cc(-c3ccncc3)cnc2O[C@@H]1CN(C)C(=O)C1CCOCC1 | -2[16.7 µM] | 7
CO[C@H]1CN(C)C(=O)c2cc(NC(C)=O)ccc2OC[C@@H](C)N(Cc2nccs2)C[C@H]1C | 70*[16.7 µM] | -7
CN1C(=O)c2cc(NC(=O)C3CC3)ccc2OC[C@H]2O[C@H](CC(=O)NCc3ccccc3F)CC[C@H]21 | -21[16.7 µM] | 13
COc1ccc(S(=O)(=O)N(C)C[C@@H]2OCCCC[C@@H](C)Oc3ccc(NC(=O)Cc4ccccc4)cc3C(=O)N([C@@H](C)CO)C[C@H]2C)cc1 | -4[16.7 µM] | -10
COc1ccc(-c2cnc3c(c2)C(=O)N([C@H](C)CO)C[C@@H](C)[C@H](CN(C)C(=O)C2CCC2)O3)cc1 | -33[16.7 µM] | 1
CC(C)CC#Cc1ccc2c(c1)O[C@@H](CN(C)Cc1ccc(C(=O)O)cc1)[C@H](C)CN([C@@H](C)CO)S2(=O)=O | -10[16.7 µM] | 5
O=C(Cc1ccccn1)NCC[C@@H]1CC[C@H](NC(=O)Nc2ccc(C(F)(F)F)cc2)[C@H](CO)O1 | -5[16.7 µM] | 5
CCNC(=O)C[C@@H]1C=C[C@H](NS(=O)(=O)c2ccc(F)cc2)[C@H](CO)O1 | 5[16.7 µM] | -6
Cc1noc(C)c1NC(=O)N[C@H]1CC[C@H](CCNC(=O)C2CCCC2)O[C@H]1CO | 7[16.7 µM] | -1

# By substructure: the entries above with a thiophene ring, fused or not (2)
compound | HIV Env fusion | Yeast UUG start
C[C@@H]1CCCCO[C@@H](CN(C)S(=O)(=O)c2cccs2)[C@@H](C)CN([C@@H](C)CO)C(=O)c2cc(NC(=O)NC3CCCCC3)ccc2O1 | 21[16.7 µM] | -1
C[C@@H]1CN([C@@H](C)CO)C(=O)c2cc(NS(=O)(=O)c3ccc(Cl)cc3)ccc2O[C@@H](C)CCCCO[C@H]1CN(C)S(=O)(=O)c1cccs1 | -18[16.7 µM] | -4

# Next part
compound | HIV Env fusion | Yeast UUG start
COc1ccc(S(=O)(=O)N(C)C[C@@H]2OCCCC[C@H](C)Oc3ccc(NC(=O)c4ccccc4)cc3C(=O)N([C@H](C)CO)C[C@@H]2C)cc1 | -68[16.7 µM] | -6
CC(C)NC(=O)N(C)C[C@@H]1Oc2ccc(NS(=O)(=O)c3ccccc3)cc2CC(=O)N([C@H](C)CO)C[C@@H]1C | 9[16.7 µM] | 2
Cc1noc(C)c1S(=O)(=O)Nc1ccc2c(c1)C(=O)N([C@H](C)CO)C[C@@H](C)[C@H](CN(C)C(=O)NC1CCCCC1)OCCCC[C@@H](C)O2 | -19[16.7 µM] | 9
C[C@H](CO)N1C[C@H](C)[C@H](CN(C)Cc2ccc(C(=O)O)cc2)OCCCC[C@H](C)Oc2ccc(NS(C)(=O)=O)cc2C1=O | -10[16.7 µM] | 0
CC(C)NC(=O)Nc1ccc2c(c1)C(=O)N([C@H](C)CO)C[C@@H](C)[C@H](CN(C)Cc1ccccc1)OCCCC[C@@H](C)O2 | 3[16.7 µM] | 34
COC(=O)C(CC#Cc1ccc2c(c1)[C@]1(C(=O)N2)[C@H](c2ccccc2OCCO)N2[C@H](c3ccccc3)[C@H](c3ccccc3)OC(=O)[C@H]2[C@@H]1C(=O)N1CCCCCCC1)C(=O)OC | 7[16.7 µM] | 15
CCCNC(=O)C[C@@H]1CC[C@@H]2[C@@H](COc3ccc(NC(=O)CC)cc3C(=O)N2C)O1 | -23[16.7 µM] | -15
CCCC(=O)Nc1ccc2c(c1)OC[C@H](C)N(Cc1ccncc1)C[C@H](C)[C@H](OC)CN(C)C2=O | 63*[16.7 µM] | 16
Cc1noc(C)c1NC(=O)Nc1ccc2c(c1)C(=O)N([C@H](C)CO)C[C@H](C)[C@H](CN(C)CC1CCCCC1)OCCCC[C@H](C)O2 | 4[16.7 µM] | 21

# This is a subset; the hit share may differ from the screen's.
